Screening data deposited in PubChem BioAssay by Johns Hopkins Ion Channel Center.
KCNQ2 pot = potentiators of rat KCNQ2 potassium channel | Potassium voltage-gated channel subfamily KQT member 2 (Rattus norvegicus), O88943 | CHO-K1 KCNQ2, FluxOR thallium flux fluorescence; stronger effect = higher value | B-score at 10 µM | actives 0.54% (n = 310,000) | AID 2239, 2010;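 active = fluorescence ratio B-score at least 3 SD of library B-scores, with initial fluorescence B-score within 3 SD, cut at about 5.3 in these data; same plate scores as AID 2156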;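 note: B-score of peak minus minimum over baseline fluorescence ratio after K+ and Tl+ stimulus; positive B-score means potentiation of KCNQ2 with more thallium influx and brighter signal; only the inactives scoring about 0 or higher are listed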
Target sequence (O88943 whole entry, looked up): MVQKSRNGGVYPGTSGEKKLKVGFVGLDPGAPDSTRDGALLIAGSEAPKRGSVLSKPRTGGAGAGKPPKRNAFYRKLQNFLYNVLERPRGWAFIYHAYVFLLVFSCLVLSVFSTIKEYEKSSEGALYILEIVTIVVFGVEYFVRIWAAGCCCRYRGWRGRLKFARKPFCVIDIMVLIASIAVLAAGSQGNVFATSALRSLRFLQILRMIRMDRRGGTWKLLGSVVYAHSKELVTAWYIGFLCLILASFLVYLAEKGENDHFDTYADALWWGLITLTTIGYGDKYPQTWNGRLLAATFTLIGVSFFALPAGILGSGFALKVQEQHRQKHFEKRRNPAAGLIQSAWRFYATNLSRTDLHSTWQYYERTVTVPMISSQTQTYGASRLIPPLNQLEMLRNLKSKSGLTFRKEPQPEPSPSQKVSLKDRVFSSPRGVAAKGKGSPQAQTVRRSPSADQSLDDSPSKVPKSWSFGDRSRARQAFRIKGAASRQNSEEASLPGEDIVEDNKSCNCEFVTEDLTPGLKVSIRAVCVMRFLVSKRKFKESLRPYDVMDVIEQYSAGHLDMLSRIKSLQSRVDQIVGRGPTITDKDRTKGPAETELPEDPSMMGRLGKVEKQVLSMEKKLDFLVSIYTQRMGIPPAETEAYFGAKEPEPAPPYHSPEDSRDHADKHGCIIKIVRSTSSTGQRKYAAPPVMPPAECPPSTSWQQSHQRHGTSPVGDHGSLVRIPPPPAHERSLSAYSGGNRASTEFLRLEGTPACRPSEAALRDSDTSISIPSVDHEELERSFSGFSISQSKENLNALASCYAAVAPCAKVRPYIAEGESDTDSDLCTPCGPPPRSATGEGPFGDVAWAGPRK
KCNQ2 pot baseline = also measured in KCNQ2 pot; calls as there; B-score; compound at 10 µM; measured here: initial fluorescence intensity artifact check;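 brightness before thallium and not channel activity; 0 = typical well and far values either way flag optical interference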
An asterisk follows results filed as active. A portion of the library. The share of hits here may be higher or lower than overall.

Molecule | KCNQ2 pot | KCNQ2 pot baseline
COc1ccc(C(=O)N2c3ccccc3C=CC2C#N)cc1 (stereo unspecified) | 0.44 | -0.78
CCC1CCCCN1CC(=O)c1c(C)[nH]c2ccc(OC)cc12 (stereo unspecified) | 1.1 | -0.86
Cc1ccccc1C(=O)Nc1ccc(O)cc1C(=O)O | 0.32 | 0.02
O=C(COc1ccc(Cl)cc1Cl)NCc1ccncc1 | 0.4 | 0.55
Oc1c(Br)cccc1/C=N/c1ncn[nH]1 | 4.6 | 0.45
O=C(Nc1ccnn1C1CCN(Cc2cccc(OCCO)c2)CC1)C1CCOC1 (stereo unspecified) | 1.1 | 0.63
CCCCCOC(=O)NC1CCS(=O)(=O)C1 (stereo unspecified) | 0.13 | -0.98
O=C(COc1ccc2c3c(c(=O)oc2c1)CCCC3)N[C@@H](Cc1ccccc1)C(=O)O | 0.03 | -0.02
O=C(NCc1ccco1)c1ccc(Cl)c(S(=O)(=O)Nc2ccccc2)c1 | 0.41 | -1.2
Cn1nc(NC(=O)C2CCC2C(=O)O)c2c(F)cccc21 (stereo unspecified) | 0.89 | -0.48
CCCc1cc(C(=O)NNC(=S)Nc2cccc(C)c2)cs1 | 0.6 | 2.2
N#CCSc1nc2c(cc1C#N)CCCC2 | 3.1 | -0.05
Cc1ccc2[nH]c3c(N4CCCCCC4)ncnc3c2c1 | 1.3 | 0.37
CCN(CC)CCn1c(SCC(=O)Nc2cccc(OC)c2)nc2c(sc3ccccc32)c1=O | 0.01 | 0.43
COc1ccc(-c2cc(C(F)F)n3ncc(C(=O)Nc4cc(C)on4)c3n2)cc1 | 2.1 | -0.01
NC(=O)c1ccsc1NC(=O)Cc1ccc([N+](=O)[O-])cc1 | 1 | 0.39
CC1=C(C#N)C(=O)OC(C)(C)C1 | 0.55 | 3.6
O=C(c1cc(-c2ccccn2)nc2ccccc12)N1CCN(c2ncccn2)CC1 | 2.3 | -1.6
CC(NC(=O)c1cc2ccccc2o1)c1ccccc1 (stereo unspecified) | 0.05 | 0.54
COc1ccc(C)cc1NC(=O)C1CCN(S(=O)(=O)c2ccccc2)CC1 | 1.6 | 0.27
Cc1ccc(NC(=S)N(N)CCO)cc1 | 1.3 | -0.19
COc1ccc(N(C(=O)c2ccco2)C(C(=O)NC2CCCC2)c2ccco2)cc1OC (stereo unspecified) | 0.18 | 0.07
CC(=O)Nc1sc(C)c(C)c1C(=O)OCC(=O)Nc1cc(S(C)(=O)=O)ccc1Cl | 0.74 | 0.31
COc1ccc2cc(CN(CC3CCCO3)C(=S)NCc3ccco3)c(=O)[nH]c2c1 (stereo unspecified) | 0.22 | 0.82
NC(=O)[C@@H]1CCCCNc2c(I)cc([N+](=O)[O-])cc2C(=O)N[C@@H](CCC(=O)O)C(=O)N[C@@H](CO)C(=O)N1 | 1.9 | -0.22
Cn1cc(C2N3CC4(C)CN2CC(C)(C3)C4=O)c2ccccc21 (stereo unspecified) | 0.4 | 1.7
N#CCC(=O)Nc1ccc(C(=O)NCc2cccc(Cl)c2)cc1 | 0.62 | 0.52
COc1cccc(CN2CC(C(=O)N(C)CC3CCOCC3)CCC2=O)c1 (stereo unspecified) | 1.4 | 0.67
COc1ccc(/C=N\Nc2ccc([N+](=O)[O-])cc2[N+](=O)[O-])c(C(=O)O)c1OC | 0.02 | 2
Cc1cccc2cc(-c3nc4ccc(C(=O)O)cc4[nH]3)c(=O)oc12 | 0.02 | 0.13
Cc1cc(C)n(-c2ccc(C(=O)NCCCN3CCOCC3)cc2)n1 | 0.58 | -0.98
O=C(Nc1ccc2oc(-c3ccccc3)nc2c1)c1ccccc1F | 0.01 | -0.37
COc1ccc(Br)c(C(=O)NC(C)(C)CO)c1 | 0.02 | 0.89
O=C(CCNS(=O)(=O)c1cccs1)NCc1cccs1 | 0.94 | 0.19
Cc1nc2sc3c(c2c(=N)n1N)CC(C)(C)OC3 | 1.4 | -0.1
CCOc1ccc(/C=N/n2c(COc3ccccc3)n[nH]c2=S)cc1OC | 2.4 | -0.24
COC(=O)C1=NN(c2ccccc2)C2C(=O)N(c3ccccc3OC)C(=O)C12 (stereo unspecified) | 0.53 | 1.2
Cc1ccc(-n2nnnc2SCC(=O)N2c3ccccc3NC(=O)C2(C)C)cc1 | 2 | -1.2
Cc1cc(NC(=O)COc2ccc(C)c(C)c2)no1 | 0.3 | -0.01
O=C(O)CC(NC(=O)c1ccco1)c1ccco1 (stereo unspecified) | 0.14 | -0.09
COc1cc(NC(=O)c2ccc3snnc3c2)cc(OC)c1 | 1.2 | -1.3
O=C(NNc1nc2cc3c(cc2s1)OCO3)c1cccc(F)c1 | 1.1 | -0.01
NC(=O)c1nn2c(C(F)(F)F)cc(-c3ccccc3)nc2c1Br | 0.83 | -1.1
CC(NC(=O)c1ccc(N(C)C)cc1)c1ccc(F)cc1 (stereo unspecified) | 0.06 | -0.07
NS(=O)(=O)c1ccc(NC(=O)c2cccc(Cl)c2)cc1 | 0.04 | 0.14
Cc1nnc(SCC(=O)Nc2ccc([N+](=O)[O-])cc2)n1CC1CCCO1 (stereo unspecified) | 0.5 | 0.04
O=C(NCc1ccco1)c1nc(-c2ccc(F)cc2)no1 | 0.79 | -0.88
O=C(NN1CCOCC1)c1cccc(Br)c1 | 0.23 | -0.06
O=C(O)CC(Cc1ccc(Cl)cc1)C(=O)Nc1cc(Cl)ccc1Cl (stereo unspecified) | 0.17 | -2.1
CCc1c(C)sc(NC(=O)c2cc(C(C)C)on2)c1C#N | 3.1 | 1.8
C=CCOc1ccc(C(=O)Nc2ccccc2C(=O)NCc2cccnc2)cc1 | 0.23 | -1.7
COC(=O)N/N=C(\CCC(=O)O)c1cccs1 | 0.64 | -0.6
COc1ccccc1N(CC(=O)N1CCCC1)S(=O)(=O)c1ccc(C)cc1 | 0.57 | -0.18
CCc1ccc(C(=O)NNC(=O)C2CC(=O)N(Cc3ccccc3)C2)cc1 (stereo unspecified) | 2.1 | 0.04
CC(C)c1cc(C(=O)N2CCCC(Nc3ccc(F)cc3)C2)nc(N)n1 (stereo unspecified) | 0.14 | -0.97
O=C(Nc1ccsn1)c1ccc(Cl)cc1Cl | 0.88 | -0.43
CCOCCCn1c(SCC(=O)Nc2ccccc2)nc2ccccc2c1=O | 0.47 | -1.7
COc1cc(C(C)=O)ccc1OCC(O)CNCC(O)c1ccccc1 (stereo unspecified) | 0.07 | -0.8
CC(C)CN1C(=O)C(NC(=O)C2CC2)(C(F)(F)F)C2=C1CC(C)(C)CC2=O (stereo unspecified) | 1.8 | -1.2
CCOC(=O)N1CCc2c(sc3ncn(C)c(=O)c23)C1 | 0.69 | 0.89

Other records
Molecule | KCNQ2 pot | KCNQ2 pot baseline
COc1ccc(N(C)C(=O)C2CCN(S(=O)(=O)c3cccc4nonc34)CC2)cc1 | 0.54 | -0.49
CC(OC(=O)CNS(=O)(=O)c1ccc(C#N)cc1)C(=O)Nc1cccc(C#N)c1 (stereo unspecified) | 0.23 | 0.35
CCC1Sc2ccccc2N(CC(=O)NC2CCCC2)C1=O (stereo unspecified) | 0.28 | -0.68
COc1ccc(CC(=O)NNS(=O)(=O)c2ccccc2)cc1OC | 0.1 | -0.77
COc1ccc(CCOC(=O)c2ccc(NC(=O)CC#N)cc2)cc1 | 0.79 | 0.63
Cc1ccc(NC(=S)N/N=C/c2ccc([N+](=O)[O-])s2)cc1 | 0.32 | -0.84
CC(C)(C)NC(=O)C(c1ccc(F)cc1)N(CC1CCCO1)C(=O)c1csnn1 (stereo unspecified) | 0.09 | -0.19
Cc1csc(=O)n1CCC(=O)OCC(=O)c1c(N)n(CC(C)C)c(=O)n(C)c1=O | 2.3 | 1.3
CCCCn1c2c(c3ccccc31)CCc1nonc1-2 | 0.01 | 1.2
COc1ccccc1NS(=O)(=O)c1ccc(OC)c([N+](=O)[O-])c1 | 0.4 | -1.1
Clc1ccc(CN2CCSCC2)c(Cl)c1 | 0.07 | 0.65
CC(C)CN1C(=O)C(=O)N(CC(=O)NC2CCCc3ccccc32)C1=O (stereo unspecified) | 2 | 1.2
Nc1ccc(NC(=O)c2cccc(C(=O)Nc3ccc(N)cc3Cl)c2)c(Cl)c1 | 0.05 | -0.92
N#Cc1cc(N)ccc1-n1cccc1 | 2 | 0.02
COc1ccc(CNC(=O)c2ccc(N3CCC4(CC3)CC(c3ccc(Cl)cc3)=NO4)c(N)c2)cc1 | 0.56 | -0.97
O=[N+]([O-])c1ccc(O)c2ncccc12 | 8.7* | -1.1*
C=CCn1cc(C(=O)N2CCN(C)CC2)c(=O)c2cc(S(=O)(=O)N3CCCC3)ccc21 | 1.8 | 0.68
CS(=O)(=O)N(CC(=O)N1CCCCCC1)c1cccc([N+](=O)[O-])c1 | 1.6 | -1.7
COc1ccc(CN2CCC(Oc3cc(C(=O)NC4CC4)ccc3OC)CC2)c(O)c1 | 1.5 | -0.68
O=C(C1CC1)N1CCC(c2nc(-c3ccc(S(=O)(=O)N4CCCC4)cc3)no2)CC1 | 1.5 | -2.3
O=C(O)c1ccccc1-c1nc2cc(Cl)ccc2c(=O)n1O | 0.54 | -0.83
Nc1nc2ncc(C(=O)c3cc(F)ccc3O)cc2s1 | 0.05 | -0.27
COc1ccc(C(=O)NCC(=O)OCc2ccc(F)cc2)cc1 | 0.33 | -0.32
OC(CC#CCN1CCOCC1)(c1ccccc1)c1ccccc1 | 0.03 | 1.1
CC(C)(C)C1CCC(OCC(O)CN2CCN(c3ccccn3)CC2)CC1 (stereo unspecified) | 0.05 | -1
CC(C)OC(=O)CSc1nnc(COc2ccc([N+](=O)[O-])cc2)n1C | 0.01 | 0.6
Cc1ccc(OC(C)C(=O)Nc2ccc(S(=O)(=O)N3CCOCC3)cc2)cc1 (stereo unspecified) | 0.38 | 2.6
Cc1ccc(NC(=O)CSc2n[nH]c(-c3ccccn3)n2)cc1 | 0.12 | -0.67
CN(Cc1ccc(F)cc1)C(=O)c1cccc(OC2CCN(C3CCCC3)CC2)c1 | 0.02 | 0.83
CCN(CC)C(=O)c1[nH]cnc1C(=O)N[C@@H](Cc1ccccc1)C(=O)OC(C)(C)C | 0.59 | -0.2
Fc1ccc(Nc2ncnc3ccccc23)cc1 | 1.2 | 0.03
CCCCC(=O)NC(NC(=O)CCCC)c1ccc(OCC(C)C)c(OC)c1 | 0.83 | 0.66
O=C(NCCN1CCC(Cc2ccccc2)CC1)C1CCN(S(=O)(=O)N2CCC3(CC2)OCCO3)CC1 | 1.1 | 0.07
CC(=O)NC12CC3CC(C1)CC(C(=O)Nc1c(C)n(C)n(-c4ccccc4)c1=O)(C3)C2 | 0.65 | -0.98
Cc1ccc(NC(=O)CSc2nc(=O)n(CCCN3CCOCC3)c3c2CCCC3)cc1 | 2.3 | -0.95
CCCc1ccc(OC(=O)c2cccs2)cc1 | 0.25 | -0.23
COc1ccc(C(=O)n2nc(C)c(Br)c2C)cc1OC | 0.33 | 0.27
COc1ccc(C)cc1S(=O)(=O)N(C)CC(=O)NC1CCCC1 | 1.1 | -0.54
CCN(CCO)Cc1csc2ccc(C(C)(C)C)cc12 | 0.43 | -0.42
COc1ccc(NC(=O)Nc2nnc(CC(=O)Nc3ccccc3)s2)cc1 | 1.9 | 0.11
COc1cc(N)ccc1C(=O)O | 0.05 | 0.35
O=C(O)Cn1cc2c(n1)CCCCC2 | 0.31 | 0.68
CCOC(=O)c1cc(CC)sc1NC(=O)c1ccc(N2C(=O)CCC2=O)cc1 | 0.28 | -0.83
CCOC(=O)N1CCN(C(=O)Cc2ccc(Cl)cc2)CC1 | 0.07 | -4.1
Cc1nc(NCCc2ccc(Cl)cc2)c2nnn(Cc3ccccc3)c2n1 | 0.5 | 0.94
Cc1c(C(=O)Nc2ccccc2C(=O)N2CCOCC2)cccc1[N+](=O)[O-] | 0.04 | -0.58
Cc1ccc(C)c(C(=O)N2CCN(c3ncccn3)CC2)c1 | 0.14 | -0.03
CS(=O)(=O)N1N=C(c2ccc(Br)cc2)CC1c1ccc2c(c1)OCO2 (stereo unspecified) | 1 | 0.73
Clc1ccc(CO/N=C/c2cccs2)cc1 | 0.61 | 2.9
NCCN1CCN(CCN)CC1 | 0.18 | -0.66
Cc1cccc(C(=O)NCCCNC(=O)c2cccnc2)c1 | 0.09 | 0.69
O=C(CCl)c1ccc2c(c1)CCN2C(=O)C1CC1 | 0.11 | -3.6
Cc1ccc2c(C)nc(Nc3nc(CSc4nnc(C)s4)cc(=O)[nH]3)nc2c1 | 0.7 | -0.82
CCCNC(=O)c1cc(-c2ccco2)on1 | 0.11 | 0.7
O=C(c1ccccc1)c1cccs1 | 1.7 | 0.26
COC(=O)CCC(=O)Nc1ccc(NC(=O)CCC(=O)OC)cc1 | 1.2 | -1.4
O=c1oc2ccccc2c2c1ncn2C1CCCCC1 | 1.4 | -1.1
Cc1nc2ncnn2c(C)c1C/C=C/c1ccccc1 | 0.02 | -1
Cc1cccc(CC(=O)Nc2ccon2)c1 | 0.18 | 0.31

Some of these compounds in order of length of the SMILES, lowest first:
Molecule | KCNQ2 pot | KCNQ2 pot baseline
CCCNC(=O)c1cc(-c2ccco2)on1 | 0.11 | 0.7
O=C(CCl)c1ccc2c(c1)CCN2C(=O)C1CC1 | 0.11 | -3.6
Cc1ccc(C)c(C(=O)N2CCN(c3ncccn3)CC2)c1 | 0.14 | -0.03

Entries of single compounds, quoted from the list:
`NCCN1CCN(CCN)CC1` as listed: KCNQ2 pot: 0.18; KCNQ2 pot baseline: -0.66
`Clc1ccc(CO/N=C/c2cccs2)cc1` as listed: KCNQ2 pot: 0.61; KCNQ2 pot baseline: 2.9
